TSHR agonist – qHTS Assay for Agonists of the Thyroid Stimulating Hormone Receptor; Thyrotropin receptor (Homo sapiens), P16473; HEK293-CNG-TSHR cells (CNG channel as cAMP sensor), membrane potential dye, cAMP; Potency, µM (highest dose often 57.1 µM), inactives show at the top dose activation, actives largely listed as activators; actives 0.48% (n = 73,000); AID 926, 2007; active = well fitted activation curve of enough size with the parental cells flat; inconclusive = any curve in the parental cells; inactive = parental cells flat and receptor cells flat or falling; further: potency means the concentration at half of the fitted maximal effect; % of control where 0% means no effect; weak receptor curves with flat parental cells got no call and are not listed
Target sequence (P16473 whole entry, looked up): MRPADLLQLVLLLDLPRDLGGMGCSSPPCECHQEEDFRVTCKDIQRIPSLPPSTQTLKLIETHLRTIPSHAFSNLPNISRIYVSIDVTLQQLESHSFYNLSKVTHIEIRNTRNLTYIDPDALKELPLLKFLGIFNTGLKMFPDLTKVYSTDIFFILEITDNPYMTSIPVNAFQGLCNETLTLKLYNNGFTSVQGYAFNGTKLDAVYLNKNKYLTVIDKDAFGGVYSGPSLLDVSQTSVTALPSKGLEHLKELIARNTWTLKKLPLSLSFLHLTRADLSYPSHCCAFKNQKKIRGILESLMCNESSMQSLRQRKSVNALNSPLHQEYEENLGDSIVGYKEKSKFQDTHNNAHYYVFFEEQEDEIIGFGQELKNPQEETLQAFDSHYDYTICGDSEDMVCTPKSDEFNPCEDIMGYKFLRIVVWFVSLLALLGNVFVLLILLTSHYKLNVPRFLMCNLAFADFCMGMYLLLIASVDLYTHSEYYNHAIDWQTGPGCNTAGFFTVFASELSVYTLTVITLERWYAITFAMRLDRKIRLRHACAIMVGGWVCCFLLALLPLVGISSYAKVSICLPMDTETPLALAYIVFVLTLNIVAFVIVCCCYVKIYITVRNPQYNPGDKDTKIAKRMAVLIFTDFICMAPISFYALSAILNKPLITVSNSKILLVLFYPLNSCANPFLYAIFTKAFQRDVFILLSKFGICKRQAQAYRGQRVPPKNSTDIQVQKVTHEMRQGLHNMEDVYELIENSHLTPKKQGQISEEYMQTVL
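HEK 293 cells stably expressing TSHR and a modified CNG channel, with CNG-only parental cells as counterscreen, were preloaded 60 min at room temperature with membrane potential dye containing 100 uM RO 20-1724. Compound exposure was 30 min, and depolarization was read as fluorescence at 590 nm.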
A647 autofl – qHTS Assay for Spectroscopic Profiling in A647 Spectral Region; 59,000 tested, under 10 active; max dye-equivalent concentration, M; Compound fluorescence, A647 channel (570/671 nm), Tris buffer; AID 592, 2007; active means above 1 µM dye equivalent; inconclusive means 0.1 to 1 µM; inactive means 0.1 µM or less;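 further: values scaled relative to a standard on each plate; highest value over a series up to 38 µM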
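Buffer was dispensed, compounds and Alexa 647 standards were pin-transferred, and plates sat 15 min at room temperature. Intensity at 570/671 nm was then converted to dye-equivalent concentration using the plate's A647 standard curve.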
AID923 – qHTS Assay for Allosteric/Competitive Inhibitors of Caspase-1: Spectroscopic Profiling in AFC Spectral Region | Potency, µM (titrated, usually from 57.5 µM), for the others: at the top dose fluorescence increase, hits mostly activators | AID 923, 2007 | compound fluorescence, AFC spectral region (405/520 nm); almost no hit is shown here | actives 1.1% (n = 75,000); active means well fitted activation curve with a large enough effect; inconclusive means small, poorly fitted or top-dose-only effect;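 further: potency means the concentration at half of the fitted maximal effect; 0% is about no effect; scaled to a free AFC standard on each plate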
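Compound autofluorescence profiled at 405 nm ex/520 nm em during kinetic caspase 1 run (50 nM enzyme, 5 uM Ac-WEHD-AFC, HEPES pH 7.5, 10 mM DTT). Titration up to 57 uM; baseline from regression intercept, normalized to AFC standard curve.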
A488 fluor – qHTS Assay for Spectroscopic Profiling in A488 Spectral Region | compound autofluorescence, A488 spectral region, dye equivalency; hits give high values | max dye equivalency, M | actives 0.1% (n = 59,000) | AID 591, 2007; active = above 10 nM dye equivalent; inconclusive = 1 to 10 nM; inactive = 1 nM or less; about half of its hits are not listed in these tables;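 further: highest value over a series up to 38 µM; compound alone in buffer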
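Read-out: relative fluorescence at 480/540 nm, expressed as Alexa 488 dye-equivalent concentration from a six-point A488 standard included per plate. Conditions: 100 mM Tris, pH 8.0; 15 min incubation, room temperature.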
Resorufin fluor – qHTS Assay for Spectroscopic Profiling in Resorufin Spectral Region | Compound fluorescence, resorufin region 547/598 nm, buffer; hits give high values | max dye-equivalent concentration, M | actives 0.04% (n = 59,000); active = above 10 nM dye equivalent; inconclusive = 1 to 10 nM; inactive = 1 nM or less; a few of its hits are not listed in these tables; further: highest value over a series up to 38 µM
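Compounds in 100 mM Tris buffer, pH 8.0, incubated 15 min at room temperature, then read with 547 nm excitation and 598 nm emission filters. Fluorescence was converted to dye-equivalent concentration using an on-plate six-point resorufin standard curve.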
* marks the source's active call; other numbers are inactive results; i = inactive; ? = inconclusive; / = no result given; [ ] = remark or other dose. Not all compounds are listed. The share of hits here may be higher or lower than overall.

SMILES	TSHR agonist	A647 autofl	AID923	A488 fluor	Resorufin fluor
Cc1ccc(C2(C)NC(=O)N(CC(=O)NC(=O)NC3CCCC3)C2=O)cc1 (centres undefined)	-5%	4e-08	-1.6%	i	i
CC(C)c1ccc2c([Si](C)(C)C)c3c(nc2c1)-c1cccc(=O)n1C3	3%	/	1.6%	/	/
CCn1nc(C(=O)OCC(=O)c2ccc3c(c2)OCCO3)c2ccccc2c1=O	?	2.5e-08	-1.2%	i	i
Cc1cc2c(c(=O)n1Cc1ccccn1)C(C(C)C)C(C#N)=C(N)O2 (centres undefined)	-7%	1e-09	-0.5%	i	i
COc1ccc(S(=O)(=O)Cc2ccc(C(=O)N3CCN(c4ccc(Cl)cc4)CC3)o2)cc1	20µM*	/	5.9%	/	/
Cc1ccc(C)c(C(=O)CN2C(=O)CCC2=O)c1	?	2e-08	-0.6%	i	i
Cn1c(SCC(=O)N2CCc3ccccc3C2)nnc1-c1cccs1	11%	1.5e-08	0.6%	i	i
CN(C)c1nc(Oc2ccc(N)cc2)nc(N(C)C)n1	-15%	2.9e-08	-0.1%	i	i
COc1ccc(NC2=NCC(=O)N2c2ccccc2F)c(OC)c1	-3%	1e-09	1.4%	i	i
CC(C)CNc1oc(-c2ccc(F)cc2)nc1C#N	10%	/	-1.7%	/	/
COc1cc2cc(CN(CCCO)S(=O)(=O)c3ccccc3)c(=O)[nH]c2cc1OC	-5%	1.4e-08	2.2%	i	i
CC(C)c1nc(SCC(=O)N2CCCC2)c2ccccc2n1	/	4.8e-08	-0.6%	i	i
Cc1cc(C)c(S(=O)(=O)Nc2ccc(C(=O)O)c(O)c2)cc1C	9%	/	-1.3%	/	/
O=C(Nc1ccncc1)C1COc2ccccc2O1 (centres undefined)	-11%	1e-09	1.5%	i	i
COc1ccc(-c2cc(C(F)(F)F)nc(N3CCN(Cc4ccccc4)CC3)n2)cc1OC	/	3.8e-08	2.4%	i	i
Cc1ccc(CCC(=O)Nc2ccc(S(N)(=O)=O)cc2)o1	0%	1e-09	2.1%	i	i
COc1ccc(-c2nnc3ccc(SCC(=O)N4CCOCC4)nn23)cc1	?	/	1.1%	/	/
Nc1nonc1C(=O)NC(c1ccccc1)c1ccccc1	35%	2.2e-09	-2.6%	i	i
CCn1c2ccccc2c2cc(NC(=O)CSc3nnc(C4CC4)n3Cc3ccco3)ccc21	-10%	1e-09	1.0%	i	i
CC1CN(S(=O)(=O)c2cccc(C(=O)NCc3ccc4c(c3)OCO4)c2)CC(C)O1 (centres undefined)	4%	1.8e-08	0.2%	i	i
CCOC(=O)N1CCN(c2ncnc3c2cnn3-c2ccc(OC)cc2)CC1	/	8e-09	/	i	i
COc1ccc(Nc2nc(N)nc(CN3CCC(Cc4ccccc4)CC3)n2)cc1	-6%	/	0.7%	/	/
COc1ccc(COC(=O)N/N=C2/C[C@@H](O)[C@@H](O)[C@@H]3[C@@H]4C(=O)N(C5CCCCC5)C(=O)[C@H]4CC[C@H]23)cc1	0%[11.4 µM]	/	0.2%[11.5 µM]	/	/
CC1=C[N+](=O)c2ccccc2[N+]1=O	1%[11.4 µM]	2.1e-08	2.2%[11.5 µM]	i	i
O=S1(=O)N=C(N2CCN(Cc3ccccc3)CC2)c2ccccc21	-10%	1e-09	-1.9%	i	i
CCc1nn(C(C)C(=O)NCCN2CCN(c3cccc(C)c3C)CC2)c(=O)c2cc3occc3n12 (centres undefined)	0%	/	0.1%	/	/
CSc1cccc(NS(=O)(=O)c2ccc(F)cc2)c1	13%	1.4e-08	2.0%	i	i
Cc1ccc(S(=O)(=O)CC(=O)N2CCCCCC2)cc1	-2%	4.4e-08	2.0%	i	i
CC(NC(=O)Nc1ccccc1)c1ccccc1 (centres undefined)	-1%	/	0.0%	/	/
Cn1c(C[C@@H](O)c2nc3ccccc3n2C)nc2ccccc21	-1%[11.4 µM]	1e-09	0.7%[11.5 µM]	i	i

Three compounds from above, reduced to Resorufin fluor and A647 autofl.
Molecule,Resorufin fluor,A647 autofl
CC1=C[N+](=O)c2ccccc2[N+]1=O,i,2.1e-08
CCn1c2ccccc2c2cc(NC(=O)CSc3nnc(C4CC4)n3Cc3ccco3)ccc21,i,1e-09
Cn1c(C[C@@H](O)c2nc3ccccc3n2C)nc2ccccc21,i,1e-09

(further entries)
SMILES	TSHR agonist	A647 autofl	AID923	A488 fluor	Resorufin fluor
O=C(Nc1ccncc1)C1c2ccccc2Oc2ccccc21	0%	6.4e-09	-4.5%	i	i
O=C(Nc1ccccc1C(F)(F)F)N1CCCCCC1	20%	4.2e-08	0.1%	i	i
O=P(c1ccccc1)(c1ccccc1)C(O)c1ccncc1 (centres undefined)	8%	1e-09	0.1%	i	i
CCC(=O)Nc1cc(C)c(NC(=O)c2ccccc2OC)cn1	-2%	6e-09	-0.7%	i	i
C=CCNC(=O)N[C@@H](CCSC)C(=O)OC	-2%	4.5e-09	-0.4%	i	i
O=c1c[n+]([O-])c2ccccc2n1OCc1c(F)cccc1F	4%	2e-09	-0.6%	i	i
Cc1ccccc1N(CC(=O)NCCc1ccccc1)C(=O)c1ccc(N2CCCC2)nc1	20%	3.5e-08	-1.2%	i	i
O=C(O)CC(CC(=O)Nc1nncs1)c1ccccc1 (centres undefined)	0%[11.4 µM]	1.4e-09	-1.0%	i	i
Cc1cc(C(=O)NCCCn2ccnc2)cs1	-16%	2e-08	-0.9%	i	i
Cc1cc(C)c(NC(=O)CSc2nc3c(c(=O)n2C)SC(C)C3)c(C)c1 (centres undefined)	?	/	2.6%	/	/
CCc1nnc(NC(=O)CSc2nnc(-c3c[nH]c4ccccc34)n2C)s1	-15%	1e-09	3.3%	i	i
O=C(c1ccccc1F)N1CCN=C1SCc1cccnc1	1%	/	-4.8%	/	/
O=C(COc1ccccc1)N(Cc1ccco1)c1ccc(O)cc1	20µM*	1.2e-08	-1.8%	i	i
Cc1ccc(S(=O)(=O)NC(=O)NCc2ccc3c(c2)OCO3)cc1	/	5.1e-09	/	i	i
Cc1ccc2c(c1)nnn2C1CCN(S(=O)(=O)c2ccc(C(=O)N3CC(C)CC(C)C3)cc2)CC1 (centres undefined)	?	1.9e-08	0.3%	i	i
CCCn1c(CN2CCN(C(=O)OCC)CC2)nc2c1c(=O)n(C)c(=O)n2C	6%	/	3.2%	/	/
COc1cccc(-c2nc(NCCc3c[nH]c4ccc(OC)cc34)c3ccccc3n2)c1	-2%	4.8e-09	0.8%	i	i
CC(NS(=O)(=O)c1ccccc1)C(N)=O (centres undefined)	/	1e-09	1.9%	i	i
CC1(C)Cc2c(C#N)c(NCC3CCCO3)nc(-c3ccco3)c2CO1 (centres undefined)	/	1e-09	/	i	i
Cc1cc(C)cc(NC(=O)CSc2nnc(-c3ccccc3)n2N)c1	3%	1.4e-08	0.0%	i	i
NC(=O)C1(c2ccccc2)CCOCC1	2%	2.1e-08	-1.4%	i	i
O=C(CN1C(=O)c2ccccc2S1(=O)=O)NCc1ccccn1	2%	5e-09	-0.4%	i	i
C=CCN(C(=O)CN1CCOCC1)c1nc(C)c(-c2ccccc2)s1	1%[11.4 µM]	3.1e-08	1.3%	i	i
Cc1cc(OCC(=O)Nn2cnnc2)c(C)cc1Br	12%	1e-09	1.1%	i	i
C(=N\n1cnnc1)/c1cccc(OCCOc2ccccc2)c1	13%[11.4 µM]	/	5.8%	/	/
CCCCCc1c(O)nc(SCC(=O)NCC2CCCO2)[nH]c1=O (centres undefined)	-1%	2.4e-08	0.2%	i	i
Brc1cccc(-c2cnc3n2CCCCC3)c1	/	9.1e-08	/	i	i
COc1ccc(S(=O)(=O)N2CCN(c3ccccn3)CC2)cc1OC	4%	6.9e-09	-3.5%	i	i
COCCCNC(=O)c1ccc2c(c1)OCO2	-6%	1e-09	-0.1%	i	i
CSc1nnc(-c2cccs2)n1-c1ccccc1	?	7.2e-09	-2.4%	i	i
COc1ccc(CC(NC(C)=O)C(=O)N2CCN(C(=O)N(C(C)C)C(C)C)CC2)cc1 (centres undefined)	12%	1.1e-08	2.0%	i	i
O=C(CCCN1CCC(O)(c2ccc(Br)cc2)CC1)c1ccc(F)cc1	-3%[25.6 µM]	2.6e-08	2.3%[25.7 µM]	i	i
COc1ccc(NC(=O)CNS(=O)(=O)c2ccc3nc(C)sc3c2)c(OC)c1	0%[11.4 µM]	2.9e-08	-0.2%	i	i
CCOc1ccc(C)cc1S(=O)(=O)n1ccc(C)n1	15%	3.5e-08	-1.1%	i	i
CCN(CC)C(=O)COn1c(SCC(=O)N(CC)CC)nc2ccccc2c1=O	/	1.9e-08	/	i	i
COc1cc(C)c(S(=O)(=O)n2ccc(C)n2)cc1C	4%	1e-09	0.2%	i	i
COc1ccc(S(=O)(=O)NCc2ccc(C(=O)O)cc2)cc1	/	1e-08	-1.6%	i	i
O=C(NC1CCCCC1)c1ccc(S(=O)(=O)NCc2cccnc2)cc1	?	1e-09	-1.4%	i	i
COc1ccc(OC)c(NC(=O)C23CCC(C)(C(=O)O2)C3(C)C)c1 (centres undefined)	/	1e-08	0.8%	i	i
O=C(Nc1nnc(-c2ccccc2Cl)o1)c1ccc(S(=O)(=O)N2CCCCCC2)cc1	?	1e-09	0.8%	i	i
CN1C(=O)CC(N2CCN(CC(=O)N3CCCC3)CC2)C1=O (centres undefined)	-3%	/	1.1%	/	/
O=C(O)c1ccccc1C(=O)Nc1ccccn1	10%	4.2e-08	-1.4%	i	i
Cc1ccccc1CN1CCNC1=O	-4%	7.9e-09	-1.5%	i	i
CCOC(=O)C1CCN(Cc2ccc(O)c3ncccc23)CC1	-15%	1e-09	-1.5%	i	i
COc1ccc(CCNC(=O)c2cc(-c3ccc4c(c3)OCO4)on2)cc1OC	0%	3.3e-09	-0.1%	i	i
COC(=O)C(C)Sc1nc2c(cnn2-c2ccc(C)cc2)c(=O)[nH]1 (centres undefined)	7%	2.6e-08	-0.2%	i	i
CCc1nc(N(CC)CC)c2oc3ccccc3c2n1	?	1.3e-08	-0.1%	i	i
O=C(CSc1ccc2nnc(-c3ccc(F)cc3)n2n1)NCC1CCCO1 (centres undefined)	0%[11.4 µM]	4.4e-09	-0.2%	i	i
Cc1ccsc1C1C2=C(CC(C)(C)CC2=O)Nc2ncnn21 (centres undefined)	1%	/	0.2%	/	/
Cc1cc(C(=O)N(C2CCCCC2)C2CCCCC2)no1	24%	2.1e-09	-2.8%	i	i
Cc1cc(NC(=O)c2ccc3c(c2)OCO3)no1	-10%	1e-09	-0.7%	i	i
CC12CC(NC(=O)N1c1cccc(C(=O)N3CCN(c4ccccc4F)CC3)c1)c1ccccc1O2 (centres undefined)	4%[11.4 µM]	8.8e-09	0.4%	i	i
CCCc1nnc(NC(=O)CCN2C(=O)c3ccccc3C2=O)s1	8%	3.8e-08	-1.8%	i	i
CC(C)OC(=O)c1cccc(C(=O)O)n1	3%	6.7e-09	1.6%	i	i
N#Cc1nc(Cc2ccccc2)oc1N1CCC(Cc2ccccc2)CC1	?	3.2e-09	-0.6%	i	i
CCOC(=O)C1=C(CC)Nc2ccccc2N=C1NC(=O)Nc1ccccc1OC	12%	1e-09	-1.1%	i	i
COc1ccccc1-c1nnc2n1N=C(C)CS2	-7%	2e-09	-1.3%	i	i
